VACV Venus inh: qHTS for Stage-Specific Inhibitors of Vaccinia Orthopoxvirus: Venus Reporter Primary qHTS; Vaccinia virus Venus reporter expression, fluorescence; Potency, µM (highest dose often 36.5 µM), for inactives: top-dose activity change, negative = inhibition, usual class: inhibitors; 330,000 tested, 0.46% active; AID 720580, 2013; active means well fitted inhibition curve with a large enough effect; inconclusive means small, poorly fitted or top-dose-only effect; inactive means no such curve, though single readings can be large or run the other way; tested in A549 cells; also: nearly all actives have a fitted effect of over 30% in size; inactives centre near -10
Vaccinia mCherry: qHTS for Stage-Specific Inhibitors of Vaccinia Orthopoxvirus: mCherry Reporter Primary qHTS; Vaccinia virus mCherry reporter infection, fluorescence; about a quarter of the inactives have no number; Potency, µM (highest dose often 36.5 µM), for inactives: top-dose activity change, negative = inhibition, usual class: inhibitors; 310,000 tested, 0.63% active; active = well fitted inhibition curve with a large enough effect; inconclusive = small, poorly fitted or top-dose-only effect; inactive = no such curve, though single readings can be large or run the other way; tested in A549 cells; also: nearly all actives have a fitted effect of over 35% in size; inactives centre near -10
* marks the source's active call; other numbers are inactive results; i = inactive; u = inconclusive; x = not tested or not shown; & = joins results of further samples; [ ] = dose if it differs, or a comment. % is scaled to controls: 0 for no effect and ±100 for the full control effect; potency is read from the fitted curve at half-maximal effect.

SMILES | VACV Venus inh | Vaccinia mCherry
Cc1nc(-c2ccccc2)sc1C(=O)NS(=O)(=O)c1ccc(CN2CCN(c3ccccc3)CC2)cc1 | 6% | 13%
CCOC(=O)c1cn(-c2c(C)n(C)n(-c3ccccc3)c2=O)c2c(F)c(F)c(F)cc2c1=O | -2%[7.34 µM] | i[7.34 µM]
CCNC(=O)C1(C)CCCN(Cc2ccc3ccccc3c2Br)C1 (configuration not stated) | 0% | i
C=CCn1c(SCC(=O)NCCCC(=O)OCC)nc2scc(-c3ccco3)c2c1=O | 6% | -7%
COc1cccc(OCc2nc3ccccc3n2CCOc2ccc(C)cc2)c1 | -12% | -4%
Cc1ccc(C)c2[nH]c(=O)c(CCNC(=O)CC(C)C)cc12 | -10% | i
Cc1ccc(-c2nc3c(=O)n(C)c(=O)nc-3n(C)n2)cc1 | 0.89µM* | 2.8µM*
O=C(Nc1ccc(-c2ccc(N3CCCCC3)nn2)cc1)c1ccco1 | -14% | -3%
COc1ccc(NC(=O)c2sc3nc(C)c(C(=O)Nc4ccc(C)cc4C)c(-c4ccc(C)o4)c3c2N)cc1 | 0% | -9%
Cc1ccc(C)c(Cn2c(=O)n(-c3ccccc3)c(=O)c3c4c(sc32)CCCC4)c1 | -20% | -16%
Cc1c(-c2cc(C(=O)O)on2)cnn1C | -15% | -6%
COc1ccc(C(CC(=O)Nc2ccccn2)N2Cc3ccccc3C2=O)cc1OC (configuration not stated) | -2% | -10%
NCC(=O)c1ccccc1 | -10%&-8%&-13% | -8%&24%
O=c1cc(Nc2ccc3c(c2)OCCO3)[nH]c(=O)n1Cc1ccc(F)cc1 | -2% | -4%
COC(=O)CCN(C)CCC(=O)OC | -12% | x
CCc1ccc(NC(=O)Cn2ccn(Cc3ccccc3OC)c(=O)c2=O)cc1 | -6% | -1%
COc1ccc(-n2ncc(C(=O)N3CCN(c4cc(C)ccc4C)CC3)c2C2CCN(C(=O)OC(C)(C)C)CC2)cc1 | u | u
COc1ccc(NC(=O)NC(C(F)(F)F)C(F)(F)F)cc1 | -16% | x
CN(C)c1ccc(CN(Cc2ccco2)C(=O)c2ccc(F)cc2)cc1 | 1% | -11%
COc1ccc(S(=O)(=O)NNC(N)=S)cc1 | -5% | -12%
O=C(CN1CCc2cc3c(cc2C1)OCCCO3)Nc1ccc(S(=O)(=O)N2CCCC2)cc1 | -6% | i
Cc1nnsc1S(=O)(=O)Cc1ccccc1C(F)(F)F | 2% | -6%
CCc1ccc(NC(=O)c2sc3nc(C)c(Cl)c(C)c3c2N)cc1 | -23% | -29%
Cc1ccc(C2SCC(C(=O)O)N2C(=O)c2ccc(F)cc2)cc1 (configuration not stated) | 0% | i
Cc1nc(-c2ccc(S(=O)(=O)Nc3ccc(Br)cc3Cl)s2)cs1 | -12% | -1%

A section from the list above, as a working copy:
SMILES | VACV Venus inh | Vaccinia mCherry
COc1ccc(NC(=O)NC(C(F)(F)F)C(F)(F)F)cc1 | -16% | x
CN(C)c1ccc(CN(Cc2ccco2)C(=O)c2ccc(F)cc2)cc1 | 1% | -11%
COc1ccc(S(=O)(=O)NNC(N)=S)cc1 | -5% | -12%
O=C(CN1CCc2cc3c(cc2C1)OCCCO3)Nc1ccc(S(=O)(=O)N2CCCC2)cc1 | -6% | i

Carrying on:
SMILES | VACV Venus inh | Vaccinia mCherry
Cc1nn2cnc3sc4c(c3c2nc1=O)CCCC4 | -18% | -18%[1.46 µM]
COc1ccc2oc(C(=O)OCC(=O)Nc3cccc(S(=O)(=O)N4CCOCC4)c3)c(C)c2c1 | 3% | -21%
CCOC(=O)c1c[nH]c2ccc([N+](=O)[O-])cc12 | -4% | i
O=C(COc1ccccc1)Nc1nc(-c2cccs2)cs1 | -2% | x
O=C(c1ccco1)N1CCN(Cc2nc(Cc3ccccc3)no2)CC1 | -4% | i
O=C(Nc1nnc(SCCC2OCCO2)s1)C1CC(=O)N(c2ccccc2)C1 (configuration not stated) | -6% | -7%
Cc1ccc(C(=O)N/N=C/c2sc(=O)n(Cc3cccc(C(=O)O)c3)c2Cl)cc1 | 1% | x
CCOc1ccc2c(c1)c(C(C)=O)c(C)n2Cc1ccco1 | -10% | -13%
COc1ccccc1/C=C/C=N/NC(=O)c1ccco1 | -20% | -2%
CCN(C[C@H]1N[C@@](C)(C(=O)OC)[C@H]2C(=O)N(C)C(=O)[C@@H]12)S(=O)(=O)c1ccc(-c2ccccc2)cc1 | -23% | -27%
CCCNC(=O)c1ccccc1NC(=O)c1nsc2ccccc12 | -6% | i
CCSC1=NCCN1C(=O)c1c(-c2ccccc2Cl)noc1C | -15% | 0%
CC1CCN(c2nc(/C=C/c3ccccc3)nc3ccccc23)CC1 | -21% | i
CCOc1ccc(NC(C)=O)cc1 | -7%&-9%&-2% | -15%&-7%&-9%
COCc1cccc(-c2csc(C(O)c3ccc(OC)cc3)n2)c1 (configuration not stated) | -19% | u
Cc1ccccc1C(=O)Nc1c2c(nc3ccccc13)CCCC2 | -12% | i
OC(COc1ccc2ccccc2c1)Cn1cncn1 (configuration not stated) | -11% | i
COC(=O)c1ccccc1NC(=O)/C=C/C(=O)O | -5% | i
CCCC(=O)NC1C2CC3CC(C2)CC1C3 (configuration not stated) | -1% | -3%
CCc1ccc(-c2cc(C)no2)cc1S(=O)(=O)Nc1ccc(C)cn1 | -17%&-21% | -26%&-20%
Cc1ccc(C(=O)COC(=O)CN2C(=O)C3CC=CCC3C2=O)cc1C (configuration not stated) | -3% | -5%
O=C(/C=C/c1cccs1)Nc1cccnc1 | -3% | -8%
COc1ccc(NC(=O)c2ccco2)cc1NC(=O)c1cc(Br)ccc1Cl | -20% | i
COC(=O)c1ccc(NC(c2ccc(Cl)cc2)P(=O)(OC)OC)cc1 (configuration not stated) | -13% | -18%
O=C(Nc1ccccc1)C1=C(N2CCOCC2)/C(=C/c2cccnc2)CC1 | -17% | -3%

Entries of single compounds as entered above.
COc1ccc(S(=O)(=O)NNC(N)=S)cc1 reads VACV Venus inh: -5%; Vaccinia mCherry: -12%
Cc1ccc(-c2nc3c(=O)n(C)c(=O)nc-3n(C)n2)cc1 reads VACV Venus inh: 0.89µM*; Vaccinia mCherry: 2.8µM*

Further results
SMILES | VACV Venus inh | Vaccinia mCherry
CC(C)C[C@@H](CNCC(=O)[C@H](CC(C)C)NC(=O)c1[nH]cnc1C(=O)N[C@@H](C)CN)NC(=O)c1nc[nH]c1C(=O)N[C@@H](CC(C)C)C(=O)O | -1% | i
COC(=O)C1=C(c2ccc(OC(F)(F)F)cc2)C[C@@H]2CC[C@H]1N2C(=O)NCc1cc(C)oc1C(F)(F)F | u | u
CSc1ccc(CCNC(=O)C(C)n2nc(C)c3sc4ccccc4c3c2=O)cc1 (configuration not stated) | -14% | -21%
CCc1nnc(NC(=O)C(=O)c2cc(C)n(-c3ccccc3)c2C)s1 | 1% | -3%
CC(C)N(Cc1nc(-c2ccc(Cl)cc2)no1)C(=O)CN(C)S(=O)(=O)c1ccc(Cl)cc1 | -19% | -2%
CCN(CC)Cc1cc(Nc2ccnc3cc(Cl)ccc23)ccc1O | -11%&-11% | -11%&-6%
CCc1ccccc1Oc1nc2cc(-c3cccc(OC)c3)sc2c(=O)n1C | -10% | 13%
Cc1ccc(Nc2nnc(SCC(=O)NC3CCS(=O)(=O)C3)s2)c(C)c1 (configuration not stated) | -21% | i
Cc1ccc(NC(=O)c2c(C)oc3ccc(O)c(CN(C)Cc4ccccc4)c23)c(C)c1 | -22% | -23%
O=C(NCc1ccccn1)c1nc(Cn2cc([N+](=O)[O-])cn2)no1 | 10% | -9%
COCCNC(=O)C(c1ccc(Cl)cc1)N(C(=O)CCC(=O)Nc1ccccn1)C1CCCC1 (configuration not stated) | -11% | x
O=[N+]([O-])c1cc(CN2CCOCC2)c2cccnc2c1O | -7% | -7%
COc1ccc(CCNS(=O)(=O)c2c(C)nc3sccn3c2=O)cc1OC | -18% | -14%
CC(C)N1C(=O)c2ccc(C(=O)O)cc2C1=O | -4% | i
Cc1cccc(C)c1NC(=O)c1cccc2c1-c1ccccc1C2=O | -11% | i
CCOC(=O)C1=C(C)N(CCCC(=O)O)C(=O)NC1c1ccc2ccccc2c1 (configuration not stated) | -10% | i
CCOC(=O)[C@]12CCCC=C1N(CCC1=CCCCC1)C(=O)[C@H](CC(=O)NCC1CCCCC1)C2 | u | u
Cc1ccccc1NC(=O)c1cc(-c2ccccc2)n(CCCN2CCOCC2)c1C | -12% | -16%
CCCN(CC(=O)Nc1ccccc1OC)C(=O)c1cc(-c2cccs2)nn1-c1ccccc1 | -27% | -19%
COCCNC(=O)COc1ccc(N(C)S(=O)(=O)c2ccc3ccccc3c2)cc1 | -16% | i
CCCOc1ccc(NC(=O)C2CC(=O)N3CCCN=C3S2)cc1 (configuration not stated) | -4% | -8%
Cc1oc2ncn(C)c(=O)c2c1C(=O)N1CCN(c2ccc(Cl)cc2)CC1 | -5% | -9%
CC(C)(C)OC(=O)NCCCC[C@H](NC(=O)c1nc[nH]c1C(=O)NC1CCN(C(=O)OC(C)(C)C)CC1)C(=O)OC(C)(C)C | u | i
CCC(=O)NC(=S)Nc1ccc(NC(=O)COc2ccc(Cl)c(C)c2)cc1 | -18% | -27%
O=c1c2oc3ccccc3c2ncn1Cc1ccc(F)cc1 | 0% | -8%
Next section:
SMILES | VACV Venus inh | Vaccinia mCherry
CCOC(=O)CC[C@H](NC(=O)Cn1cnc2c(NCc3ccccc3)ncnc21)C(=O)OCC | -15% | i
Cc1ccc(NC(=O)C(=O)NCC(c2ccc3c(c2)OCO3)N2CCN(c3ccccc3)CC2)cc1 (configuration not stated) | -13% | -13%
O=C(c1csc2c1CCCCC2)N1CCN(c2ncccn2)CC1 | -17% | -18%
CCCCC1=CC2=CC(=O)C(C)(OC(=O)CC)C(=O)C2=CN1c1ccccc1 (configuration not stated) | -11% | -28%
COc1ccc(S(=O)(=O)N2CCCC(c3cc(C(=O)NCc4cccnc4)no3)C2)cc1 (configuration not stated) | -1% | -13%
CC(C)Oc1cc(C(=O)NC2CCCCC2)c2ccccc2n1 | -2% | i
CCCNC(=O)C(Cc1ccccc1)NS(=O)(=O)c1ccc2c(c1)c(=O)n(C)c(=O)n2C (configuration not stated) | -7%&-14% | -14%
COc1ccc(/C=N/NC(=O)c2cc(C)n(-c3ccccc3)c2C)cc1OC | -14% | -27%
Cc1ccc(NC(=O)CSc2nc3nc(C)cc(C)c3c(=O)[nH]2)cc1 | -19% | -19%
CSCC[C@H](NC(=O)[C@H](Cc1ccccc1)NC(=O)CNC(=O)CNC(=O)[C@@H](N)Cc1ccc(O)cc1)C(=O)O | -5%[3.33 µM] | -15%[3.33 µM]
CS(=O)(=O)Nc1nc2n(n1)C(c1ccccc1)C=C(c1ccc(Br)cc1)N2 (configuration not stated) | 17% | -12%
CCOC(=O)c1cnc2ccccc2c1Nc1ccc(N2CCOCC2)cc1 | -13% | -10%
NC(=S)Nc1cccc2cccnc12 | -16% | x

Part of the list above, set out differently.
SMILES: CCCCC1=CC2=CC(=O)C(C)(OC(=O)CC)C(=O)C2=CN1c1ccccc1 (configuration not stated)
  VACV Venus inh: -11%
  Vaccinia mCherry: -28%

SMILES: CCCNC(=O)C(Cc1ccccc1)NS(=O)(=O)c1ccc2c(c1)c(=O)n(C)c(=O)n2C (configuration not stated)
  VACV Venus inh: -7%&-14%
  Vaccinia mCherry: -14%

SMILES: CS(=O)(=O)Nc1nc2n(n1)C(c1ccccc1)C=C(c1ccc(Br)cc1)N2 (configuration not stated)
  VACV Venus inh: 17%
  Vaccinia mCherry: -12%

Assay outcomes as filed in PubChem.
